Compound activity as filed in PubChem BioAssay.
StopGo RLuc: lowers the Renilla signal of an FMDV 2A StopGo reporter; HEK cells with a luciferase reporter of 2A StopGo recoding; Potency, µM (titrated, usually from 57.5 µM), for the others: top-dose signal change, negative = less light; 0.32% of 120,000 active; active means well fitted falling curve with a large enough effect; inconclusive means small, poorly fitted or top-dose-only effect; inactive means no such curve, though single readings can be large or run the other way; also: nearly all actives have a fitted effect of over 55% in size; overnight with compound
StopGo FLuc: lowers the firefly signal of an FMDV 2A StopGo reporter; 0.23% of 120,000 active; Potency, µM (series often up to 57.5 µM), for inactives: at the highest dose signal change, negative = less light; HEK cells with a luciferase reporter of 2A StopGo recoding; active = well fitted falling curve with a large enough effect; inconclusive = small, poorly fitted or top-dose-only effect; inactive = no such curve, though single readings can be large or run the other way; also: nearly all actives have a fitted effect of over 60% in size; overnight with compound
* hit, by the source's call; ? = inconclusive; [ ] = another dose, or the depositor's remark. % is scaled to controls: 0 for no effect and ±100 for the full control effect; potency is read from the fitted curve at half-maximal effect.

1) COc1ccc(NC(=O)c2cc(=O)c3cc(C)ccc3o2)c(OC)c1
2) CC1CCC(NC(=O)c2ccc(CS(=O)(=O)c3ccc(Cl)cc3)o2)CC1 (stereo not given)
3) O=C(c1cc(F)cc(F)c1)N(Cc1ccco1)C1CC1
4) Cc1cc(C)cc(NC(=O)N2CCC3(CC2)Oc2ccccc2C(=O)N3Cc2ccccc2F)c1
5) Cc1ccccc1OCc1nc(C#N)c(N2CCC(C)CC2)o1
6) O=C(Oc1ccc2cc(-c3ccccc3)c(=O)oc2c1)C1CC1
Screen / compound no. | 1 | 2 | 3 | 4 | 5 | 6
StopGo RLuc | 5.2% | 5.2% | -1.4% | 0.0% | 0.8% | 1.4%
StopGo FLuc | 19.9% | -18.8% | 13.1% | 0.0% | 55.7%[activator] | 40.8%[activator]

7) CCCC(=O)Oc1ccc2c(=O)c(Oc3cc(C)cc(C)c3)coc2c1
8) COc1cc(OC)c(NC(=O)NC(C)c2c(-n3cccc3)sc(C)c2C)cc1Cl (stereo not given)
9) COc1ccc(-c2cc(-c3ccccc3)c(C#N)c(SCC(O)CS(=O)(=O)Cc3ccccc3)n2)cc1 (stereo not given)
10) Cc1ccc(C(=O)/C=C/c2ccccc2C)cc1C
11) Cc1cc(NC(=O)CNc2cc(S(=O)(=O)N3CCOCC3)ccc2N2CCCCC2)no1
12) O=C(c1n[nH]c(=O)c2ccccc12)N1CCN(Cc2ccccc2)CC1
Screen / compound no. | 7 | 8 | 9 | 10 | 11 | 12
StopGo RLuc | 14.1% | -13.3% | 26.8% | 4.2% | 0.8% | -10.9%
StopGo FLuc | 7.4% | 0.0% | -7.6% | 157.2%[activator] | 6.2% | 1.2%

Reprinted at random: four records from the list
7) CCCC(=O)Oc1ccc2c(=O)c(Oc3cc(C)cc(C)c3)coc2c1
11) Cc1cc(NC(=O)CNc2cc(S(=O)(=O)N3CCOCC3)ccc2N2CCCCC2)no1
8) COc1cc(OC)c(NC(=O)NC(C)c2c(-n3cccc3)sc(C)c2C)cc1Cl (stereo not given)
12) O=C(c1n[nH]c(=O)c2ccccc12)N1CCN(Cc2ccccc2)CC1
Screen / compound no. | 7 | 11 | 8 | 12
StopGo RLuc | 14.1% | 0.8% | -13.3% | -10.9%
StopGo FLuc | 7.4% | 6.2% | 0.0% | 1.2%

Additional records follow.
13) O=C(COc1ccc(-c2ccccc2)cc1)NCCc1c[nH]c2ccccc12
14) Cc1cccc(CNC(=O)Cc2csc3ccccc23)c1
15) COc1ccc(NC(=O)Cc2c(C)c3ccc(OC)c(C)c3oc2=O)cc1OC
16) CCn1c(C(=O)N2CCC(C(=O)N3CCN(c4cc(C)ccc4C)CC3)CC2)cc2sccc21
17) CS(=O)(=O)N1CCN(c2ccc(NC(=O)COc3ccc(Cl)cc3)cc2)CC1
18) Cc1nc(CNC(=O)N(C)Cc2ccc3c(c2)OCO3)cs1
Screen / compound no. | 13 | 14 | 15 | 16 | 17 | 18
StopGo RLuc | -17.5% | 15.2% | -7.1% | ? | -10.4% | -4.3%
StopGo FLuc | -12.9% | 83.0%[activator] | -0.5% | -37.9% | -2.6% | -8.3%

19) O=C(CSc1nc2c([nH]c3ccccc32)c(=O)n1-c1ccccc1)Nc1ccc2c(c1)OCO2
20) CCOc1ccc(-c2nc3c(C#N)c[nH]n3c2NC2CCCCC2)cc1
21) CC(C)Cc1nc(N2CCN(C(=O)C(=O)NCCCO)CC2)c(C#N)c2c1CCCC2
22) COc1ccc(-c2c3c(=O)n(C)c(=O)n(C)c3cn2-c2cccc(C)c2)cc1
23) CCOc1cccc(C(=O)N(Cc2ccc(C(C)C)cc2)C2CCS(=O)(=O)C2)c1 (stereo not given)
24) O=c1cc(-c2ccc(F)cc2)nc(SCc2nc(-c3ccc(Cl)cc3)no2)[nH]1
Screen / compound no. | 19 | 20 | 21 | 22 | 23 | 24
StopGo RLuc | 0.0% | 1.7% | 14.1% | 23.1% | 12.9% | 3.3%
StopGo FLuc | 1.0% | 70.9%[activator] | -16.9% | 23.3% | -19.8% | 7.0%

25) CCCOC(=O)c1ccc(Nc2nc3ccccc3nc2NS(=O)(=O)c2ccc(F)cc2)cc1
26) O=C(Cn1c(=O)n(Cc2nc(-c3ccccc3)no2)c(=O)c2ccccc21)Nc1cccc(C(F)(F)F)c1
27) O=C(CSc1ncc(-c2ccccc2)[nH]1)Nc1ccc(Cl)cc1
28) O=C(C1=C(O)C(=O)N(c2nncs2)C1c1ccccc1)c1cccs1 (stereo not given)
29) c1csc(-c2nc(N3CCCC3)c3ccccc3n2)c1
30) CC1CCN(CC2CCCN2)CC1 (stereo not given)
Screen / compound no. | 25 | 26 | 27 | 28 | 29 | 30
StopGo RLuc | -0.8% | -0.2% | 32.2%[activator] | 23.9% | -7.6% | -6.5%
StopGo FLuc | -6.0% | -7.3% | 67.0%[activator] | 24.5% | -7.2% | -7.4%

31) COCCN(CCOC)C(=O)c1cc2ccccc2c(OC)n1
32) CC(NC(=O)C12CC3CC(CC(C3)C1)C2)C(=O)NC(C)(C)CO (stereo not given)
33) Fc1cccc(CSC2=NCCS2)c1
34) Cc1ccc(Cl)cc1N1CCN(C(=O)c2ccc3c(Cl)c4c(nc3c2)CCCC4)CC1
35) COc1ccc(NC(=O)c2cc(=O)c3ccc(C)c(C)c3o2)cc1Cl
36) COc1ccc2c(c1)cc(CNc1ccc(OC)c(OC)c1)c(=O)n2CC(=O)Nc1ccc(F)cc1
Screen / compound no. | 31 | 32 | 33 | 34 | 35 | 36
StopGo RLuc | 6.3% | -8.8% | 8.7% | -8.6% | -2.2% | 13.9%
StopGo FLuc | 6.7% | 13.1% | 8.6% | -10.1% | -2.8% | 3.3%

37) NC(=O)c1cc(S(=O)(=O)NCC2CCN(Cc3ccccc3F)CC2)cs1
38) COc1ccc(OC)c(NC(=O)c2nc(SCc3ccc(F)cc3)ncc2Cl)c1
39) O=C(Nc1nc2ccccc2s1)c1noc2c1CSc1ccccc1-2
40) Cc1cc(C)c2[nH]c(=S)cc(C)c2c1
41) CC1(C)CC(=O)c2c(nc3cc(Cl)ccc3c2N)C1
42) COc1ccc(NC(=O)Cn2cc(C(=O)c3ccccc3OC)c(=O)c3ccc(C)nc32)cc1OC
Screen / compound no. | 37 | 38 | 39 | 40 | 41 | 42
StopGo RLuc | 2.3% | 2.0% | -7.2% | 12.6% | 9.9% | -16.2%
StopGo FLuc | 15.5% | -13.8% | 151.7%[activator] | 6.0% | 86.6%[activator] | 3.3%

43) COc1ccc2nc(/C=C/c3cccc(F)c3)sc2c1
44) CCCCc1c(C)nc(Nc2nc(C)c3cc(OC)ccc3n2)[nH]c1=O
45) CC(C)CC(=O)C(C#N)C(=O)NCc1ccccc1 (stereo not given)
46) COc1ccc2cccc(CCNC(C)=O)c2c1
47) Nc1c(-c2nc(-c3ccccc3)no2)nnn1CC(=O)Nc1ccccc1
48) CCc1cccc(NC(=O)Cn2c(C(=O)OC)cc3occc32)c1
Screen / compound no. | 43 | 44 | 45 | 46 | 47 | 48
StopGo RLuc | 24.5% | 1.4% | 10.6% | -2.3% | 20.8% | 4.6%
StopGo FLuc | 168.9%[activator] | -2.5% | 15.7% | -2.3%[11.5 µM] | 9.5% | 6.4%

Compound profiles, from the list above:
CCCCc1c(C)nc(Nc2nc(C)c3cc(OC)ccc3n2)[nH]c1=O is listed as StopGo RLuc: 1.4%; StopGo FLuc: -2.5%
CCc1cccc(NC(=O)Cn2c(C(=O)OC)cc3occc32)c1 is listed as StopGo RLuc: 4.6%; StopGo FLuc: 6.4%

Next entries:
49) COc1cc(NC2c3ccccc3C(=O)N2Cc2ccccc2Cl)cc(OC)c1OC (stereo not given)
50) CC1=CCC2C(C)(C)CCCC2(C)C1CC/C(C)=C/CC/C(C)=N/O (stereo not given)
51) Cc1ccc(C(=O)NCC(C)C)c(C)c1
52) COc1cc(OC)cc(C(=O)Nc2ccc3nc(N4CCC(C)CC4)cc(C)c3c2)c1
53) CN(C)CCCNC(=O)CCCNc1nc(Cl)nc2nc[nH]c12
54) COCCCNC(=O)c1c(NC(=O)Cc2coc3cc(C)cc(C)c23)sc2c1CCCC2
Screen / compound no. | 49 | 50 | 51 | 52 | 53 | 54
StopGo RLuc | 13.7% | -5.6%[1.06 µM] | 6.5% | 0.0% | -0.7% | 22.6%
StopGo FLuc | -0.1% | -3.3% | 0.0% | -7.7% | 5.0% | -12.1%

55) COc1ccc(C(=O)/C(=C/c2ccc(C)cc2C)c2nc3ccccc3[nH]2)cc1
56) CC(=O)N1CCN(C(C(=O)O)c2c[nH]c3ccc(Br)cc23)CC1 (stereo not given)
57) COc1ccccc1NC(=O)C1CC(=O)N(Cc2ccccn2)c2nc3ccccc3n21 (stereo not given)
58) CN(C(=O)Cn1c(=O)n(C)c(=O)c2sccc21)c1ccccc1
59) CC(=O)N1CCCc2cc(S(=O)(=O)N3CCC(C(=O)N(Cc4ccccc4)C(C)C)CC3)ccc21
60) CC(C)Oc1ccc(CNC(=O)c2ccc3c(c2)nc2n3CCOC2)cc1
Screen / compound no. | 55 | 56 | 57 | 58 | 59 | 60
StopGo RLuc | 90.6%[activator] | 10.4% | 14.4% | 7.6% | -3.8% | -10.8%
StopGo FLuc | 0.0% | 15.2% | -10.5% | 4.4% | -3.0% | 50.1%[activator]

61) COc1cc2c(=O)c(S(=O)(=O)c3ccc(F)cc3)cn(Cc3ccc(Cl)cc3)c2cc1OC
62) CCCCn1c(C(C)NC(=O)c2ccccc2)nc2ccccc21 (stereo not given)
63) O=C1CSC(c2cccc(F)c2F)c2cn[nH]c2N1 (stereo not given)
64) CCOC(=O)C1=C(CN2CCN(c3ccccc3)CC2)NC(=O)NC1c1ccc(C)cc1 (stereo not given)
65) O=C(O)C(c1c[nH]c2ccc(Br)cc12)N1CCN(c2ncc(Br)cn2)CC1 (stereo not given)
66) Cc1ccc(-n2ncc3c(Nc4cccc5c4CCCC5)ncnc32)cc1
Screen / compound no. | 61 | 62 | 63 | 64 | 65 | 66
StopGo RLuc | 1.1% | 45.4%[activator] | -3.5% | -8.0% | -6.3% | 63.0%[activator]
StopGo FLuc | -2.8% | 48.1%[activator] | 4.8% | -0.1% | -6.2% | 14.2%

Quoted from the listing:
StopGo FLuc, cpd 63 → 4.8%
StopGo FLuc, cpd 61 → -2.8%

Next part
67) O=C(NC1(C(F)(F)F)C(=O)Nc2c1c(=O)[nH]c(=O)n2-c1ccc(Cl)cc1)c1ccco1 (stereo not given)
68) COc1cc(C(=O)Nc2cccc(Cl)c2)nc2ccc(Cl)cc12
69) Cc1ccc(Cl)cc1NC(=O)CSC1=Nc2ccccc2C2=NC(Cc3ccccc3)C(=O)N12 (stereo not given)
70) CCN(CC)C(=O)N1CCC(C(=O)NCC2(c3ccc(F)cc3)CC2)CC1
71) CCc1ccc(CCC(=O)NC)cc1
72) Cc1ccc(-c2noc(CN3CCCC3c3cccs3)n2)cc1 (stereo not given)
Screen / compound no. | 67 | 68 | 69 | 70 | 71 | 72
StopGo RLuc | 6.2% | -3.2% | 25.8% | 7.9% | 3.1% | 3.2%
StopGo FLuc | 17.8% | 0.9% | -23.4% | 15.5% | 12.5% | 56.7%[activator]

73) C=CCOc1ccc(/C=C(\C)[N+](=O)[O-])cc1OC
74) Cc1c(CN(C)C(=O)Cn2nc(C(F)(F)F)c(Cl)c2C)cnn1C
75) CC(=O)c1cccc(NC(=O)c2ccc3c(c2)c(C)c(C)n3Cc2ccc(Cl)cc2)c1
76) O=C(Nc1cccc(Cl)c1Cl)c1cc(S(=O)(=O)N2CCC3(CC2)OCCO3)ccc1F
77) Cc1ccn2c(=O)c(C(=O)NC(C)c3ccccc3)c(O)nc2c1 (stereo not given)
78) COc1cccc(COC(=O)C2CCN(S(=O)(=O)c3ccc(F)cc3)CC2)c1
Screen / compound no. | 73 | 74 | 75 | 76 | 77 | 78
StopGo RLuc | 31.6µM* | -15.5% | 0.6% | 16.8% | -2.2% | -9.2%
StopGo FLuc | ? | -5.5% | 5.4% | 12.1% | -10.1% | 1.7%

79) Cc1ccccc1CS(=O)Cc1ccc(F)cc1 (stereo not given)
80) CCn1cnc2c1c(=O)n(CC(=O)Nc1ccc(C)c(F)c1)c(=O)n2Cc1ccccc1
81) CC(CC#N)NCc1ccnc(N2CCCCC2)c1 (stereo not given)
82) O=C(NC1CCCC1)C1=Cc2cc(Cl)ccc2OC=C1
83) Cc1cccc(C(=O)Nc2c(C(=O)NCc3ccc(Cl)cc3)sc3nc(C)cc(C)c23)c1
84) CCOc1ccc2c(c1)c(C(C)=O)c(C)n2-c1ccccc1
Screen / compound no. | 79 | 80 | 81 | 82 | 83 | 84
StopGo RLuc | 3.4% | 8.0% | -10.3% | 11.5% | -9.6% | 9.5%
StopGo FLuc | 10.8% | 1.8% | 2.1% | 174.6%[activator] | 0.0% | 2.1%

85) COc1ccc(C(=O)Nc2ccc3oc(-c4cc(Cl)ccc4Cl)nc3c2)cc1Br
86) CCc1ccc(-c2nnn(CC(=O)N(CC)Cc3ccc(Cl)s3)n2)cc1
87) CCCCCCCC(=O)Nc1c(C)cc(C)cc1C
88) Cn1c(=O)c2nc(Cl)n(Cc3ccccc3)c2n(C)c1=O
89) COc1ccc(NC(=O)c2cc(-c3ccccc3O)on2)cc1OC
Screen / compound no. | 85 | 86 | 87 | 88 | 89
StopGo RLuc | 3.1% | 0.0% | -11.1% | 3.1% | 4.4%
StopGo FLuc | -11.8% | 0.0% | 4.1% | 18.4% | 46.8%[activator]
